Bioassay records as filed in PubChem BioAssay.
EBV gp42 block: inhibitors of Epstein-Barr virus glycoprotein 42; hit rate 0.42% among 220,000; Q1HVG2; Fluorescence polarization binding assay, mP read-out; inhibition, % (tested at 21.74 µM); AID 1085; in the data active means inhibition above about 50%
Target sequence (Q1HVG2 whole entry, looked up): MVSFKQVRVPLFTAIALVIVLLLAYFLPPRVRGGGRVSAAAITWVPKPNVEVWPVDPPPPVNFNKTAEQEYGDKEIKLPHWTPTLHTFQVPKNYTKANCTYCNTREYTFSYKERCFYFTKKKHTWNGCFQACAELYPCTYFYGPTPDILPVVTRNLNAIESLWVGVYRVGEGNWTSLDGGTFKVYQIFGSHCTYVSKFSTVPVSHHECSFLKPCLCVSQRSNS
p97 inhibitor: blocks human p97 ATPase activity; P55072; recombinant p97 ATPase, Kinase-Glo ATP luminescence, 3 h; inhibition, % at 8 µM; hit rate 0.42% among 220,000; in the data active means inhibition above about 15%;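 further: 0% = DMSO vehicle and 100% = wells lacking enzyme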
p47phox inh: blocks human p47phox regulatory protein of NADPH oxidases; P14598; p47phox/p22phox peptide binding, fluorescence polarization, 2 h; hit rate 0.53% among 220,000; inhibition, % at 24.7 µM;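 active means inhibition above about 30%, limit read from the data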;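 further: 0% = p47phox with labelled peptide and 100% = labelled peptide alone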
Furin inhibitor: blocks human furin protease activity; P09958; purified furin, fluorogenic substrate cleavage; inhibition, % at 30 µM; hit rate 0.061% among 220,000; in the data active means inhibition above about 25%; further: inactives centre near -15
Target sequence (P09958 108-714 limits assumed): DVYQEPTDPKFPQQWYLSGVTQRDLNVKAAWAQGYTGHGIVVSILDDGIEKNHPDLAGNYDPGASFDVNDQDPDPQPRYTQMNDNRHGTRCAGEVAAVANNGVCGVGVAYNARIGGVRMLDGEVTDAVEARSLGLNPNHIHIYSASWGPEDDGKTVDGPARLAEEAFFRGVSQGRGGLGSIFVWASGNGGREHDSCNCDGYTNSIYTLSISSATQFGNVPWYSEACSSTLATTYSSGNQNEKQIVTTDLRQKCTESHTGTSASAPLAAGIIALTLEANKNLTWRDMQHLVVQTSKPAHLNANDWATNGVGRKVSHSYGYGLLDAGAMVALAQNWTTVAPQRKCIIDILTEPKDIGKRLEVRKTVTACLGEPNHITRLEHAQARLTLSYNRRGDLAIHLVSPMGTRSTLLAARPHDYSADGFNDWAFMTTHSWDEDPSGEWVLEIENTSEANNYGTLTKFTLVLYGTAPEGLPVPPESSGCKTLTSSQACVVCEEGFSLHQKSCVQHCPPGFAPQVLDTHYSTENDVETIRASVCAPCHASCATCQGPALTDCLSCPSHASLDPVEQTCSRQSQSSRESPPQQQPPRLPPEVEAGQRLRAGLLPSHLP
Tb hexokinase: T. brucei hexokinase 1 inhibition. recombinant TbHK1, G6PDH-coupled NADH A340. inhibition, % at 10 µM. hit rate 0.11% among 220,000;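 active means inhibition of 50% or more in the single-dose primary screen; inactive means inhibition below 50%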
m-calpain inh: inhibitors of pig calpain II. purified calpain II, fluorogenic peptide substrate, 30 min. inhibition, % at 16 µM. hit rate 0.37% among 220,000;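 active means inhibition above about 50%, limit read from the data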
RBBP9 inh: blocks human serine hydrolase RBBP9; inhibition, % at 7.94 µM; hit rate 0.2% among 220,000; O75884; recombinant RBBP9, FP-Rh probe fluorescence polarization; AID 1515;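 active means inhibition above the campaign mean of all tested compounds plus 3 SD, cut at about 14% in these data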;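 further: plate controls were DMSO wells with RBBP9 for no effect and wells lacking RBBP9 protein for full effect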
Target sequence (O75884 whole entry, looked up): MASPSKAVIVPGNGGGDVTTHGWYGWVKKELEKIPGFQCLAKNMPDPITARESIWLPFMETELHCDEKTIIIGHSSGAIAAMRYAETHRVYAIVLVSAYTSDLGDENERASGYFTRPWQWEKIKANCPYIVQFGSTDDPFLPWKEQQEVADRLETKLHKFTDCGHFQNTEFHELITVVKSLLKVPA
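Measured by: FP readout at 525/598 nm; material: recombinant human RBBP9; also added: Serine-hydrolase probe FP-Rh, 375 nM pre-mixing; medium: Tris buffer pH 8.0, NaCl, Pluronic; replication: one well per compound; doses: one concentration, 7.94 µM nominal, 0.794% DMSO; timing: preincubation 30 min plus labeling 45 min at 25 °C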
Starred values were filed as active, the others as inactive; i = inactive; & = joins results of further samples; [ ] = dose if it differs, or a comment. The list is partial. The share of hits here may be higher or lower than overall.

canonical_smiles	EBV gp42 block	p97 inhibitor	p47phox inh	Furin inhibitor	Tb hexokinase	m-calpain inh	RBBP9 inh
CCOc1cc(NC(=S)NCC2CCCO2)c(OCC)cc1NC(=O)c1ccccc1C (configuration not stated)	-15	0	-15	-29[20 µM]	-1	6	-5
O=C(NNc1cccc(Cl)n1)Nc1ccc(Cl)cc1	-9	1	-7	0[20 µM]	0	-35	-3
O=C(N/N=C/c1ccccn1)c1cc(-c2ccccc2)nc2ccccc12	1	-4	-7	7	-15	16	-6
O=C(O)CSc1nc(C(F)(F)F)cc(=O)n1-c1ccccc1	-9	3	-3	-26[20 µM]	2	-10	-8
CCC1CCCCN1CCn1c(=S)[nH]c2cc(OC)c(OC)cc2c1=O (configuration not stated)	-5	2	-13	-2	-23	-2	1
CC(=O)c1c(N2CCN(C)CC2)[nH]c(-c2ccccc2)nc1=S	-9	7	-16	-22[20 µM]	-15	21	-5
COC(=O)c1ccc(N)c(N=CC2=C(O)CC(C)(C)CC2=O)c1	-18	3	-33	5	-16	-12	4
CCOc1ccc(N2CC(C(=O)OC)CC2=O)cc1 (configuration not stated)	-11	0	4	-12[20 µM]	-6	8	1
Cc1ccc(-n2[nH]c(C)c(/C=N/N3C(=O)c4cccc5cccc(c45)C3=O)c2=O)cc1	-20	-24	-4	-6	-37	-130	-3
O=C(Cc1ccc(Cl)cc1)Nc1ccc(N2CCN(C(=O)c3ccco3)CC2)cc1	1	-3	5	-22[20 µM]	-3	-5	-4
Cc1ccc(N2C(=O)C3C4C=CC(C4)C3C2=O)cc1C (configuration not stated)	-11	6	-12	-11	6	14	-8
CC1CN(c2ncnc3c2c(-c2ccccc2)cn3-c2ccc(F)cc2)CC(C)O1 (configuration not stated)	10	-1	1	-10	-9	-20	-5

(more compounds)
canonical_smiles	EBV gp42 block	p97 inhibitor	p47phox inh	Furin inhibitor	Tb hexokinase	m-calpain inh	RBBP9 inh
Cc1nnc2c(Oc3ccccc3)nc3ccccc3n12	-9	3	-14	-14[20 µM]	1	-5	3
C=CCNC(=O)c1cc(Cl)ccc1Cl	-22	3	-21	-24[20 µM]	2	-6	-8
CCOC(=O)c1ccc(NC(=O)C2(c3ccccc3)CCCC2)cc1	-3	-4	-6	-6[20 µM]	3	31	-4
CCOc1ccc(C(=O)CCNC(Cc2cnc[nH]2)C(=O)O)cc1 (configuration not stated)	-2	-1	-1	-17	-4	19	-6
CCOC(=O)c1cc(-c2ccc(OC)cc2F)nc2c1c(C)nn2CCC#N	-4	-9	-12	-8[20 µM]	-21	-282	-9
N#CCCn1nnc2ccccc21	-25	2	7	-1	8	12	-8
CCOC(=O)C1=C(C)N(Cc2ccccc2)C(=O)NC1c1ccc(OC)cc1 (configuration not stated)	1	-1	2	-21[20 µM]	8	28	-10
Cc1ccc2oc(-c3ccc(C)c(NC(=O)Cc4cccs4)c3)nc2c1	-6	1	-43	-27[20 µM]	-4	-78	1
O=C(O)CCn1nnc(-c2cccs2)n1	-31	-2	4	-3	54*	-4	-8
COc1ccc(C(=O)NC(=S)Nc2cccc(Cl)c2N2CCOCC2)cc1[N+](=O)[O-]	-9	-1	-8	-9[20 µM]	-4	-10	-4
Cc1cccc(OCC(=O)NC(=S)N2CCCc3ccccc32)c1	1	-3	0	-21[20 µM]	3	33	0
CC1(C)CC(=O)C(C(C2=C(O)CC(C)(C)CC2=O)c2ccco2)C(=O)C1 (configuration not stated)	-11	3	-17	-15[20 µM]	11	-37	-2

Next compounds follow:
canonical_smiles	EBV gp42 block	p97 inhibitor	p47phox inh	Furin inhibitor	Tb hexokinase	m-calpain inh	RBBP9 inh
Cc1ccc(S(=O)(=O)N/N=C\c2ccccc2OCc2ccccc2)cc1	-22	0	-12	7[20 µM]	1	7	-4
COCCn1c(C)cc(C2=NNC(=Nc3ccc(F)cc3)SC2)c1C	-22	7	-27	-5[20 µM]	-19	-47	-4
CC1(C)S[C@@H]2[C@H](NC(=O)[C@H](N)c3ccccc3)C(=O)N2[C@H]1C(=O)O	6&-6	2&9	-6&-4	3&-21	5&5	3&19	-6&2
Cc1ccc(C(=O)NC(=S)Nc2ccccc2C(F)(F)F)cc1C	-3	-4	-8	-14	15	19	-8
Cc1c(NC(=O)CCCOc2ccccc2)cccc1[N+](=O)[O-]	-9	3	8	1[20 µM]	2	10	-8
Cc1cc(N2C(=O)C(O)=C(C(=O)c3cccs3)C2c2cccc(O)c2)no1 (configuration not stated)	-22	2	-1	2	-7	12	2
COC(=O)COc1ccc(C2NC(=O)NC(c3ccccc3)=C2C(C)=O)cc1OC (configuration not stated)	0	0	5	-14[20 µM]	-18	30	-7
O=c1cc(N2CCc3ccccc3C2)[nH]c(=O)n1C1CCCCC1	-11	2	-10	-16	-4	23	0
Cc1ccccc1OCC(O)Cn1c2ccccc2c2ccccc21 (configuration not stated)	-8	0	-6	-20[20 µM]	7	4	5
Cc1ccc(NC(=O)c2ccc(CSc3nnc(C)s3)cc2)cc1	-14	-11	-7	-16[20 µM]	-1	-44	-9
COc1cc(NC(=O)c2c(F)cccc2F)nc(OC)n1	-14	6	1	-18	26	-2	-1
CC(C)c1ccc(NC(=O)COC(=O)C2=COCCO2)cc1	-10	4	-6	-31	2	13	-1

(next part)
canonical_smiles	EBV gp42 block	p97 inhibitor	p47phox inh	Furin inhibitor	Tb hexokinase	m-calpain inh	RBBP9 inh
Nc1n[nH]c(-c2ccc(Br)cc2)c1Cl	13	5	-4	-16	2	3	-7
CC1CCCN(CC(O)COCC2COc3ccccc3O2)C1 (configuration not stated)	-4	4	-4	-1	4	16	14
CONC(=O)c1cc(OCC(F)(F)F)ccc1OCC(F)(F)F	-18	3	-3	-5[20 µM]	3	-10	1
Cc1cc(=O)oc(C)c1C(=O)OCC(=O)c1ccc(Cl)cc1	-12	4	-3	-32[20 µM]	7	-7	-3
CCn1ccc(C(=O)NC2C(=O)N3C(C(=O)O)=C(C)CSC23)n1 (configuration not stated)	-13	0	-12	-20[20 µM]	0	5	-4
CCOc1ccc(-c2nnc3ccc(SC)nn23)cc1	-4	1	-10	-18	3	-31	-2
O=C(NC(=S)Nc1ccccc1O)c1ccc(-c2ccc(Cl)cc2)o1	4	-1	-11	-21[20 µM]	-35	-11	-4
N#CCO/N=C(\c1ccccc1)c1ccncc1	0	3	-7	-31	0	-3	4
COC(=O)N1N=C(c2ccccc2)CC1(O)C(F)(F)F (configuration not stated)	-20	-1	-8	-20[20 µM]	-6	-13	-4
CCCN1CCC(=NNC(=O)c2ccc(Br)o2)CC1	-20	-4	4	-7[20 µM]	0	-22	-6
CCOC(=O)c1cc2c(=O)n3cccc(C)c3nc2n(CCCOC)c1=NC(=O)c1cccnc1	9	-8	-7	-19	-30	i	2
N#CCSc1nc2scc(-c3cccs3)c2c(=O)n1CCc1ccccc1	-17	6	-53	-11	-19	-39	5

Ordered by molecular weight (smallest number first): some entries from above
canonical_smiles	EBV gp42 block	p97 inhibitor	p47phox inh	Furin inhibitor	Tb hexokinase	m-calpain inh	RBBP9 inh
CCOc1ccc(-c2nnc3ccc(SC)nn23)cc1	-4	1	-10	-18	3	-31	-2
CCn1ccc(C(=O)NC2C(=O)N3C(C(=O)O)=C(C)CSC23)n1 (configuration not stated)	-13	0	-12	-20[20 µM]	0	5	-4
N#CCSc1nc2scc(-c3cccs3)c2c(=O)n1CCc1ccccc1	-17	6	-53	-11	-19	-39	5

17 entries from above, arranged by length of the SMILES, smallest number first.
canonical_smiles	EBV gp42 block	p97 inhibitor	p47phox inh	Furin inhibitor	Tb hexokinase	m-calpain inh	RBBP9 inh
Nc1n[nH]c(-c2ccc(Br)cc2)c1Cl	13	5	-4	-16	2	3	-7
CCOc1ccc(-c2nnc3ccc(SC)nn23)cc1	-4	1	-10	-18	3	-31	-2
CCCN1CCC(=NNC(=O)c2ccc(Br)o2)CC1	-20	-4	4	-7[20 µM]	0	-22	-6
CC1CCCN(CC(O)COCC2COc3ccccc3O2)C1 (configuration not stated)	-4	4	-4	-1	4	16	14
COc1cc(NC(=O)c2c(F)cccc2F)nc(OC)n1	-14	6	1	-18	26	-2	-1
Cc1ccccc1OCC(O)Cn1c2ccccc2c2ccccc21 (configuration not stated)	-8	0	-6	-20[20 µM]	7	4	5
COC(=O)N1N=C(c2ccccc2)CC1(O)C(F)(F)F (configuration not stated)	-20	-1	-8	-20[20 µM]	-6	-13	-4
CC(C)c1ccc(NC(=O)COC(=O)C2=COCCO2)cc1	-10	4	-6	-31	2	13	-1
CONC(=O)c1cc(OCC(F)(F)F)ccc1OCC(F)(F)F	-18	3	-3	-5[20 µM]	3	-10	1
Cc1ccc(NC(=O)c2ccc(CSc3nnc(C)s3)cc2)cc1	-14	-11	-7	-16[20 µM]	-1	-44	-9
Cc1ccc(C(=O)NC(=S)Nc2ccccc2C(F)(F)F)cc1C	-3	-4	-8	-14	15	19	-8
O=c1cc(N2CCc3ccccc3C2)[nH]c(=O)n1C1CCCCC1	-11	2	-10	-16	-4	23	0
N#CCSc1nc2scc(-c3cccs3)c2c(=O)n1CCc1ccccc1	-17	6	-53	-11	-19	-39	5
O=C(NC(=S)Nc1ccccc1O)c1ccc(-c2ccc(Cl)cc2)o1	4	-1	-11	-21[20 µM]	-35	-11	-4
CCn1ccc(C(=O)NC2C(=O)N3C(C(=O)O)=C(C)CSC23)n1 (configuration not stated)	-13	0	-12	-20[20 µM]	0	5	-4
Cc1cc(N2C(=O)C(O)=C(C(=O)c3cccs3)C2c2cccc(O)c2)no1 (configuration not stated)	-22	2	-1	2	-7	12	2
CCOC(=O)c1cc2c(=O)n3cccc(C)c3nc2n(CCCOC)c1=NC(=O)c1cccnc1	9	-8	-7	-19	-30	i	2

Next section
canonical_smiles	EBV gp42 block	p97 inhibitor	p47phox inh	Furin inhibitor	Tb hexokinase	m-calpain inh	RBBP9 inh
COc1ccc2cc3cc(C(=O)NCCc4ccc(OC)c(OC)c4)oc3nc2c1	-8	1	-5	-29	-36	-234	-4
CSc1nc(-c2ccc(C)cc2)nc(C(Cl)Cl)n1	-27	-1	7	-9[20 µM]	-5	12	-7
CCOC(=O)/C(C#N)=C/C1=C(N2CCCC2)CC(C)(CC)OC1 (configuration not stated)	-20	6	-14	-12[20 µM]	-5	-8	0
CCC(=O)Nc1nnc(SCC(=O)c2ccc3c(c2)Cc2ccccc2-3)s1	-8	4	-2	-7[20 µM]	-11	5	-13
CCOC(=O)Cc1nnc(NC(=O)CSc2ccc(C)cc2)s1	-15	0	-8	-15[20 µM]	-1	5	-7
Clc1ccc(-c2noc(CN3CCN(c4ccccc4)CC3)n2)cc1	-7	-1	-7	-27[20 µM]	7	-36	-1
O=C(C1CCN(S(=O)(=O)c2cccc3cccnc23)CC1)N1CCn2c1nc1ccccc12	-8	6	5	-23	-11	10	-7
CCCC(=O)Nc1c(-c2cccs2)c(=O)c2ccccc2n1CC	-19	8	-11	-9[20 µM]	-21	-20	-5
O=C(O)CCCC(=O)Nc1ccc(Sc2ccc([N+](=O)[O-])cc2)cc1	-11	2	5	-8	-14	-11	8
CCOC(=O)c1c(C)nc2sc3c(c2c1-c1ccc(OC)cc1)NC(c1ccccc1)NC3=O (configuration not stated)	-12	2	-12	-5[20 µM]	-3	i	-1
COc1cc(OC)nc(Oc2ccccc2C(=O)Oc2ccc(Cl)cc2)n1	0	-3	-1	-15[20 µM]	-2	12	-7
Cc1ccccc1NC(=O)c1cccc(Cn2cc(Br)c([N+](=O)[O-])n2)c1	-2	-4	-7	-11[20 µM]	3	-31	-1

Next part.
canonical_smiles	EBV gp42 block	p97 inhibitor	p47phox inh	Furin inhibitor	Tb hexokinase	m-calpain inh	RBBP9 inh
CCOC(=O)C1=C(C)N(C)C(=S)NC1c1ccccc1Cl (configuration not stated)	6	2	-3	-13[20 µM]	-10	22	-1
Cc1cc(C(F)(F)F)nc(SCC(=O)NC2=NC(=O)C(C)S2)n1 (configuration not stated)	-17	0	-9	-26[20 µM]	-1	-1	-4
CC(C)C(=O)Nc1sc2c(c1-c1nc3ccccc3[nH]1)CCCC2	-7	11	-57	-26[20 µM]	-2	-191	-8
Cc1ccc(OC(=O)c2cccc(C(=O)Oc3ccc(C)cn3)n2)nc1	4	4	-7	-30	3	3	-11
